# Cruzain noTriton: inhibitors of Trypanosoma cruzi cruzain without detergent; P25779; purified cruzain, Z-FR-AMC fluorescence, no detergent; Potency, µM, for inactives: max response, negative = inhibition, hits mostly inhibitors; 2.3% of 200,000 active; AID 1476; active = well fitted curve in the direction sought with a large enough effect; inconclusive = small, poorly fitted or top-dose-only effect, or another doubt; inactive = no such curve, though single readings can be large; an effect the other way counts as inactive or inconclusive;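 also: plate controls were enzyme without inhibitor for no effect and buffer without enzyme for full effect; nearly all actives have a fitted effect of over 40% in size; top concentration of the series not given in the record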
# Target sequence (P25779 123-467 limits assumed): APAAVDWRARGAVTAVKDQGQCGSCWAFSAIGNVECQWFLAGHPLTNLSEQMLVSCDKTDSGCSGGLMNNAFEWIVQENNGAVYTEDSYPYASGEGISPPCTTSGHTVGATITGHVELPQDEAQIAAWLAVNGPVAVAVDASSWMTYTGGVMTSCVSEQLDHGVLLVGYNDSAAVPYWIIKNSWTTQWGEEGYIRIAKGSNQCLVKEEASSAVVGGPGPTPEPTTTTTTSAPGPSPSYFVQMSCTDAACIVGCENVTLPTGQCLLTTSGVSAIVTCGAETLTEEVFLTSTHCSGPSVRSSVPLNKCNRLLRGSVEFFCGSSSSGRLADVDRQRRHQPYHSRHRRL
#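 Detergent-free condition (0.00005% Triton X-100) in acetate buffer pH 5.5 with DTT. 1.5 nM enzyme and compound were pre-mixed 15 min, then 2 uM Z-FR-AMC substrate added; reaction progress from fluorescence change between first and third reads (60 s).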
# SARS PLP yeast: inhibitors of SARS-CoV papain-like protease in yeast; 0.19% of 330,000 active; S. cerevisiae expressing SARS-CoV PLpro, growth rescue; control for the full effect not named in the record; Potency, µM (highest dose often 32.9 µM), without a hit: at the highest dose activity, positive = growth rescue; also: 0% is about no effect; nearly all actives have a fitted effect of over 55% in size; growth read by luminescence after 48 h
# RE007 growth inh: less growth of the S. pombe RE007 Vpr strain. S. pombe RE007 Vpr strain, BacTiter-Glo ATP luminescence, 24 h; control for the full effect not named in the record. Potency, µM (series often up to 92.2 µM), for inactives: at the top dose activity change, negative = less growth. 0.21% of 360,000 active; active = well fitted falling curve with a large enough effect; inconclusive = small, poorly fitted or top-dose-only effect; inactive = no such curve, though single readings can be large or run the other way;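 also: % is scaled to controls: 0 for no effect and ±100 for the full control effect; nearly all actives have a fitted effect of over 50% in size; the assay follows cell death caused by Vpr and the record does not say whether a fall means rescue or toxicity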
#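 Fission yeast strain RE007, carrying one chromosomally integrated HIV-1 vpr copy, was seeded at OD 0.01 in PMG+AL medium with 23 nL pinned compound. After 24 h at 30 °C and 99% humidity, viability was read by BacTiter-Glo luminescence.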
# Cruzain inh Det: blocks cruzain activity in presence of Triton detergent; P25779; 0.43% of 200,000 active; purified cruzain, Z-FR-AMC fluorescence, 0.01% Triton; Potency, µM, for inactives: max response, negative = inhibition, actives largely listed as inhibitors; AID 1478; active = well fitted curve in the direction sought with a large enough effect; inconclusive = small, poorly fitted or top-dose-only effect, or another doubt; inactive = no such curve, though single readings can be large; an effect the other way counts as inactive or inconclusive;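 also: plate controls were neutral wells for no effect and buffer without enzyme for full effect; nearly all actives have a fitted effect of over 40% in size; top concentration of the series not given in the record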
#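 Cruzain (1.5 nM) preincubated 15 min at RT with compound in 100 mM sodium acetate pH 5.5, 5 mM DTT, 0.01% Triton X-100. Reaction started with 2 uM Z-FR-AMC; AMC fluorescence (ex 360/em 450 nm) change over 60 s gave rate.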
# LASV entry inh: blocks Lassa virus binding to or entry into cells; Lassa virus pseudotype entry inhibition, cell reporter; control for the full effect not named in the record; AID 540256; Potency, µM (highest dose often 37.9 µM), for the others: at the top dose activity change, negative = inhibition, actives largely listed as inhibitors; 1.2% of 300,000 active; active means well fitted inhibition curve with a large enough effect; inconclusive means small, poorly fitted or top-dose-only effect, or effect the other way; inactive means flat fitted curve, though single readings scatter; tested in HEK293 cells; also: % is scaled to controls: 0 for no effect and ±100 for the full control effect; nearly all actives have a fitted effect of over 50% in size; luciferase read-out
# Marburg entry inh: inhibitors of Marburg virus binding or cell entry. Marburg virus pseudotyped entry inhibition, cell reporter; control for the full effect not named in the record; about a third of the inactives were read at about 46 µM. Potency, µM (doses to about 37.8 µM), inactives show at the highest dose activity change, negative = inhibition, actives largely listed as inhibitors. 1.8% of 300,000 active. AID 540276; active = well fitted inhibition curve with a large enough effect; inconclusive = small, poorly fitted or top-dose-only effect, or effect the other way; inactive = flat fitted curve, though single readings scatter; tested in HEK293 cells; about a fifth of its hits are not listed in these tables; also: % is scaled to controls: 0 for no effect and ±100 for the full control effect; luciferase read-out
# NS1 inh: inhibitors of influenza NS1 protein function | AID 2326 | S. cerevisiae slowed by influenza A NS1, growth recovery by OD600 | Potency, µM (series often up to 46.1 µM), for inactives: top-dose activity, positive = more growth | 0.4% of 270,000 active; also: actives are rising curves; nearly all actives have a fitted effect of over 50% in size
#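 Growth recovery, yeast-based: influenza A NS1 expressed in S. cerevisiae causes slow growth, and suppressors are detected by OD600. The parent strain without NS1 is used as positive control.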
# StopGo reporter: FMDV 2A StopGo reporter, luciferase signal; Potency, µM (titrated, usually from 57.9 µM), for inactives: at the top dose signal change, negative = less light; 1.2% of 410,000 active; human cells with a luciferase reporter of 2A StopGo recoding; control for the full effect not named in the record; active = well fitted falling curve with a large enough effect; inconclusive = small, poorly fitted or top-dose-only effect; inactive = no such curve, though single readings can be large or run the other way; tested in HEK293T cells; also: % is scaled to controls: 0 for no effect and ±100 for the full control effect; nearly all actives have a fitted effect of over 45% in size; luciferase light after 4 h
# Numbers without * were called inactive; ? = inconclusive; · = no result given; [ ] = remark or other dose. Unless noted, calls follow the shape of the dose curve; as a rule, active means well fitted rising curve with a large enough effect; inconclusive means small, poorly fitted or top-dose-only effect; inactive means no such curve, though single readings can be large or run the other way. Potency is read from the fitted curve at half-maximal effect.
SMILES,Cruzain noTriton,SARS PLP yeast,RE007 growth inh,Cruzain inh Det,LASV entry inh,Marburg entry inh,NS1 inh,StopGo reporter
Cc1ccccc1-n1c(=O)n(CCc2ccccc2)c(=O)c2[nH]cnc21,·,?,-6%,·,·,·,2%,-9%
Cc1nnc(SCC(=O)N2CCN(Cc3ccccc3)CC2)s1,3%,-1%,1%,1.9%,21%,1%,22%,12%
COC(=O)C1C(=O)C2=C(CC1C)NC(C)=C(C(=O)OC(C)C)C2c1ccc(C)o1 (configuration not stated),27%,15%,6%,-2.4%,-2%,15%,3%,24%
Cc1c(C(=O)Nc2ccc(C(=O)O)cc2)cnn1C,-2%,-3%,18%,-1.6%,3%,-1%,0%,-10%
Cc1ccc(-c2csc3ncnc(N4CCN(c5ccccc5O)CC4)c23)cc1,·,-4%,3%,·,?,?,0%,-22%
CC(=O)Nc1c(C(=O)c2ccc(F)cc2)oc2ccccc12,-17%,3%,22%,-3.2%,-1%,-15%,-7%,0%
CC(=O)CC[N+](C)(C)C,·,·,13%,·,24%,2%,·,?
Cc1cc2ncn(CCC(=O)NC3CCCC3)c2cc1C,·,9%,-13%,·,-14%[46.1 µM],6%[46.1 µM],·,-9%
Cc1cccn2c(=O)c(/C=C(\C#N)C(N)=O)c(N3CCN(c4ccccc4)CC3)nc12,·,-2%,2%,·,·,·,1%,0%
CSc1ccc(CN(C)Cc2cc(=O)oc3c(C)c(C)ccc23)cc1,·,-2%,-2%,·,·,·,1%,?
S=C(NCc1ccccn1)Nc1cccc(Cl)c1,0%,30%,-3%,1.8%,1%,0%,·,95%[activator]
O=C1Cc2cccc3cccc1c23,-9%,5%,-11%,-6.0%,27%,-13%,13%,·
Cc1nn(C)c(C(=O)Sc2cccc(Cl)c2)c1[N+](=O)[O-],·,0%,-30%,·,-7%[46.1 µM],?,-30%,-18%
COc1cccc(OC)c1C(=O)Nc1nnc(C)s1,-4%,·,·,-0.8%,13%[46.1 µM],·,·,12%
CCN(CC)S(=O)(=O)c1ccc(N2CCOCC2)c(NCC(=O)Nc2ccc(F)cc2)c1,·,0%,9%,·,0%,18%[46.1 µM],·,47%[activator]
Cc1cc(-n2c(C)cc(C(=O)CSc3ccc4c(c3)OCCO4)c2C)no1,3%,5%,-2%,-5.9%,?,?,-76%,0%
Cc1cccc(N2CCN(C(=O)c3ccc(Cl)c(S(=O)(=O)N4CCc5ccccc5C4)c3)CC2)c1C,10µM*,-6%,1%,-4.0%,?,?,?,0%
Cc1ccc(NC(=O)c2cccc(C(=O)Nc3ccc(C)cc3C(=O)O)c2)c(C(=O)O)c1,·,2%,-4%,·,-9%[46.1 µM],-9%[46.1 µM],22%,6%
COc1ccc(NC(=O)N2CCC(CO)(CC3CCCCO3)CC2)c(OC)c1 (configuration not stated),·,1%,1%,·,-24%,19%[46.1 µM],5%,1%
CCc1cc(=O)oc2cc(C)cc(OCC(=O)N3CCC(C(=O)O)CC3)c12,·,3%,-11%,·,·,·,24%,-22%
CC(c1ccccc1)C1CC(=O)N(Cc2ccco2)C1=O (configuration not stated),11%,-1%,11%,-14%,-1%,1%,2%,-5%
C=C(C)COc1ccc(-c2n[nH]c(C)c2Oc2ccccc2OC)c(O)c1,4%,-28%,2%,-10%,?,?,-67%,-27%
COc1ccc(S(=O)(=O)N(CC(=O)Nc2ccc3c(c2)OCO3)c2ccc(C)cc2)cc1,?,·,·,-6.0%,?,-8%[46.1 µM],·,41%[activator]
CCCC1=NN(c2ccc([N+](=O)[O-])cc2)C(=O)/C1=C/N(C)C,1%,-6%,5%,-5.5%,18%,1%,-12%,-7%
CN(C)S(=O)(=O)N(CC(=O)NCCSc1ccc(Cl)cc1)c1ccccc1,-1%,·,·,-11%,?,-14%[46.1 µM],·,14%
CNC(=O)CSCCn1c(SCC(=O)NC)nc2ccccc2c1=O,-2%,30%,-3%,-0.1%,-7%,?,-2%,16%
COc1ccc(N2CCN(C(=O)CSc3nnc4c(C)cc5ccc(C)c(C)c5n34)CC2)cc1,?,9%,13%,-2.5%,?,-5%,12%,-18%
COc1ccc(C2=CC(c3ccc(F)cc3)n3ncc(C(=O)Nc4ccc(C)cc4)c3N2)cc1 (configuration not stated),-28%,·,·,-2.5%,?,·,·,0%
CCN1CCN(c2c(Cl)cccc2NC(=O)c2cccs2)CC1,·,0%,0%,·,·,·,7%,0%
CCc1cccc(C)c1NC(=O)C1=C(C)C(=O)OC12CCC(C)CC2 (configuration not stated),-3%,·,·,-0.4%,20%[46.1 µM],9%[46.1 µM],·,-22%
Cn1cc(Br)c(C(=O)Nc2ncc(Br)s2)n1,·,1%,-7%,·,·,·,1%,61%[activator]
CC(=O)Nc1ccc(S(=O)(=O)N2CCC(=O)Nc3ccccc32)cc1,·,1%,-12%,·,-14%,?,2%,2%
CCOc1ccc(CCNS(=O)(=O)c2cn(C)cn2)cc1OCC,·,-7%,-1%,·,·,·,-2%,-2%
O=C(c1cnccn1)N1CCN(S(=O)(=O)c2cccc(Cl)c2)CC1,·,6%,-12%,·,-20%,?,·,-4%
CS(=O)(=O)N(CC(=O)Nc1ccccc1C(=O)N1CCCC1)c1cccc([N+](=O)[O-])c1,·,-3%,0%,·,·,·,-4%,9%
OC[C@@H](O)C1OC2NC(=S)OC2C1O (some centres not stated),·,0%,1%,·,-5%[46.1 µM],3%[46.1 µM],3%,2%
CCOc1ccc(CC(=O)N2CCC3(CC2)NCCc2[nH]cnc23)cc1,·,0%,-2%,·,·,·,-8%,-14%
COc1ccc2c(CNCCc3ccccc3)c(C(=O)O)n(Cc3cccc(F)c3)c2c1,21%,·,·,-5.4%,?,·,·,3%
CCN1CCc2c(sc(NC(=O)Nc3ccc(Cl)c(Cl)c3)c2C(N)=O)C1,-30%,?,0%,-27%,-11%,?,-28%,-11%
CCCc1nn2c(=O)cc(COC(=O)c3cccc(NC(=O)c4ccc(OCC)cc4)c3)nc2s1,11%,·,·,0.1%,?,·,·,-22%
CCOC(=O)c1sc(=NC(=O)c2ccc(C)cc2)n(C)c1C,·,2%,7%,·,3%,?,·,97%[activator]
COc1ccc(NCc2ccc(OC)c(OC)c2)cc1,7%,5%,·,-1.6%,·,0%,-3%,·
Cc1cc(C)nc(N2CCCC(C(=O)Nc3nnc(C)s3)C2)n1 (configuration not stated),-8%,1%,4%,0.7%,38%[14.3 µM],8%,-4%,1%
CCOC(=O)c1c(C)[nH]c(C(=O)OCC(=O)Nc2ccc(OCC)cc2)c1C,13%,4%,-9%,9.3%,3%,?,5%,-3%
O=C(NCc1nc2ccccc2[nH]1)C1=C[C@@H](c2ccccc2)C[C@@H](OCc2ccc(CO)cc2)O1,·,-1%,-18%,·,·,·,-4%,-2%
CCOC(=O)c1ccc(S(=O)(=O)NCCN2CCOCC2)cc1,·,3%,-19%,·,25%[46.1 µM],-4%[46.1 µM],·,-10%
CC(C)c1ccc(/C=C/C(=O)Nc2nncs2)cc1,?,-1%,36%,-5.2%,8.9µM*,?,16%,-50%
O=[N+]([O-])c1ccc(N2CCN(S(=O)(=O)c3ccccc3[N+](=O)[O-])CC2)cc1N1CCc2ccccc2C1,6.3µM*,20%,-5%,-4.4%,1%,1%,4%,-12%
Cc1ccc(-c2nc3cccc(C)n3c2Nc2ccc3c(c2)OCCO3)cc1,0%,·,·,-17%,19%[46.1 µM],?,·,-4%
Cc1ccc(-n2c(O)c(C=NC3CCS(=O)(=O)C3)c3ccccc3c2=O)cc1C (configuration not stated),3%,5%,-11%,-6.1%,-15%,-8%,6%,·
CC(C)OCCCNC(=O)c1ccc(Br)cc1,-1%,1%,4%[3.69 µM],1.8%,21%,?,-20%,41%[activator]
Cc1ccc(-c2nnc(SCC(=O)NNC(=O)COc3ccccc3C)n2C)cc1,-8%,-4%,-6%,-1.4%,5%,-3%,3%,-1%
O=C(c1ccc([N+](=O)[O-])cc1)N1CCN(Cc2ccccc2)CC1,8%,19%,2%,4.3%,-20%,?,11%,-22%
Cc1c(CC(=O)N2C[C@H]3C[C@@H](C2)c2cccc(=O)n2C3)c(=O)oc2cc(O)c(Cl)cc12,·,0%,0%,·,·,·,-2%,-9%
O=C(Nc1ccccc1Oc1cccnc1)C1CCCN(Cc2cccc(Cl)c2)C1 (configuration not stated),·,-3%,-3%,·,·,·,-14%,-11%
CCOC(=O)C1CCN(Cc2ccc(OC)cc2OC)CC1,-9%,3%,1%,8.0%,-12%,-3%,0%,?
O=C(NC1CCCCCC1)c1ccc(OCC2CCCO2)cc1 (configuration not stated),·,1%,10%,·,?,?,-3%,35%[activator]
CCOc1ccccc1C(=O)NCC(=O)OCC(=O)NCCc1ccc(S(N)(=O)=O)cc1,16µM*,-2%,5%,25µM*,0%,?,-18%,-19%
Cc1ccc(C)c(NS(=O)(=O)c2cc(C(=O)NCCC3=CCCCC3)ccc2C)c1,-24%,-1%,1%,-0.5%,?,?,5%,·
CCN1CCc2c(OCC(=O)N3CCCc4ccccc43)cccc2C1=O,·,0%,0%,·,-7%,-14%[46.1 µM],·,?
# Following part
SMILES,Cruzain noTriton,SARS PLP yeast,RE007 growth inh,Cruzain inh Det,LASV entry inh,Marburg entry inh,NS1 inh,StopGo reporter
CCN(Cc1ccccc1)Cc1c(O)ccc2oc(C)c(C(=O)Nc3ccccc3C)c12,-23%,·,·,-4.5%,?,?,·,-20%
Cc1ccc(OP2(=O)Nc3cc(C)c(C)cc3S2)cc1 (configuration not stated),·,·,14%,·,9%[46.1 µM],14%[46.1 µM],·,-27%
Cc1oc(C)c2c(=O)ccc3c(c12)OC(N)=C(C#N)C3c1ccccc1 (configuration not stated),-27%,-1%,7%,-11%,-15%,-2%[46.1 µM],8%,?
CCCCn1c(-c2ccc(Cl)c(Cl)c2)nc2cc3[nH]c(=O)c(C(C)C)nc3cc21,·,1%,-3%,·,·,·,?,-19%
COc1cccc(/C=C/C(=O)N(C)CC(=O)Nc2ccc(Cl)c(C(F)(F)F)c2)c1,·,-4%,0%,·,1%,?,·,-9%
Cc1cc(C)n(-c2ncc(-c3ccccc3)nn2)n1,-1%,17%,6%,1.7%,·,-6%,-64%,43%[activator]
